RE007 growth inh – less growth of the S. pombe RE007 Vpr strain. S. pombe RE007 Vpr strain, BacTiter-Glo ATP luminescence, 24 h; control for the full effect not named in the record. Potency, µM (titrated, usually from 92.2 µM), for inactives: at the top dose activity change, negative = less growth. 0.21% of 360,000 active; active = well fitted falling curve with a large enough effect; inconclusive = small, poorly fitted or top-dose-only effect; inactive = no such curve, though single readings can be large or run the other way;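 note: % is set by controls: 0 for no effect and ±100 for the full control effect; nearly all actives have a fitted effect of over 50% in size; the assay follows cell death caused by Vpr and the record does not say whether a fall means rescue or toxicity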
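Fission yeast strain RE007, carrying one chromosomally integrated HIV-1 vpr copy, was seeded at OD 0.01 in PMG+AL medium with 23 nL pinned compound. After 24 h at 30 °C and 99% humidity, viability was read by BacTiter-Glo luminescence.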
Cruzain inh Det – inhibitors of Trypanosoma cruzi cruzain with detergent; P25779; purified cruzain, Z-FR-AMC fluorescence, 0.01% Triton; Potency, µM, without a hit: max response, negative = inhibition, actives largely listed as inhibitors; 0.43% of 200,000 active;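 note: plate controls were neutral wells for no effect and buffer without enzyme for full effect; nearly all actives have a fitted effect of over 40% in size; top concentration of the series not given in the record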
Target sequence (P25779 123-467 limits assumed): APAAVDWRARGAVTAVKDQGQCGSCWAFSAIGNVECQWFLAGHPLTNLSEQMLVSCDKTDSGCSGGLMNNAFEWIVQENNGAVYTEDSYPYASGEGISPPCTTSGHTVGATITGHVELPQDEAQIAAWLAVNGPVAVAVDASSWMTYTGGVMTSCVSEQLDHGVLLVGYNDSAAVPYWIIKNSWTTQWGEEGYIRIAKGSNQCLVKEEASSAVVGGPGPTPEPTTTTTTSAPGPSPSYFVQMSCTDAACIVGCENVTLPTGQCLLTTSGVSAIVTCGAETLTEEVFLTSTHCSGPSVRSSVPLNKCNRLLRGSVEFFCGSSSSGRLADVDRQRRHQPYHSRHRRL
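Detergent-containing arm of a paired screen for aggregation-based inhibition: 0.01% Triton X-100 present. Cruzain at 1.5 nM cleaved 2 uM Z-FR-AMC at pH 5.5 with 5 mM DTT; AMC fluorescence gain over 60 s measured activity.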
Marburg entry inh – Marburg virus entry inhibition | Potency, µM (titrated, usually from 37.8 µM), for the others: at the top dose activity change, negative = inhibition, usual class: inhibitors | 1.8% of 300,000 active | Marburg virus pseudotyped entry inhibition, cell reporter; control for the full effect not named in the record; about a third of the inactives were read at about 46 µM; active = well fitted inhibition curve with a large enough effect; inconclusive = small, poorly fitted or top-dose-only effect, or effect the other way; inactive = flat fitted curve, though single readings scatter; tested in HEK293 cells; about a fifth of its hits are not listed in these tables; note: % is set by controls: 0 for no effect and ±100 for the full control effect; luciferase read-out
2A StopGo – FMDV 2A StopGo reporter, luciferase signal; human cells with a luciferase reporter of 2A StopGo recoding; control for the full effect not named in the record; Potency, µM (doses to about 57.9 µM), inactives show at the highest dose signal change, negative = less light; 1.2% of 410,000 active; active = well fitted falling curve with a large enough effect; inconclusive = small, poorly fitted or top-dose-only effect; inactive = no such curve, though single readings can be large or run the other way; tested in HEK293T cells; note: % is set by controls: 0 for no effect and ±100 for the full control effect; nearly all actives have a fitted effect of over 45% in size; luciferase light after 4 h
SARS PLpro yeast – inhibitors of SARS-CoV papain-like protease in yeast; Potency, µM (top dose mostly 32.9 µM), without a hit: at the highest dose activity, positive = growth rescue; S. cerevisiae expressing SARS-CoV PLpro, growth rescue; control for the full effect not named in the record; 0.19% of 330,000 active; active means well fitted rising curve with a large enough effect; inconclusive means small, poorly fitted or top-dose-only effect; inactive means no such curve, though single readings can be large or run the other way; note: 0% is about no effect; nearly all actives have a fitted effect of over 55% in size; growth read by luminescence after 48 h
Cruzain noTriton – inhibitors of Trypanosoma cruzi cruzain without detergent; P25779; Potency, µM, inactives show max response, negative = inhibition, actives largely listed as inhibitors; purified cruzain, Z-FR-AMC fluorescence, no detergent; 2.3% of 200,000 active;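 note: plate controls were enzyme without inhibitor for no effect and buffer without enzyme for full effect; nearly all actives have a fitted effect of over 40% in size; top concentration of the series not given in the record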
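Purified cruzain at 1.5 nM, pre-incubated 15 min with compound at room temperature in 100 mM sodium acetate pH 5.5, 5 mM DTT, 0.00005% Triton X-100. Reaction started with 2 uM Z-FR-AMC; AMC fluorescence increase over 60 s gives rate.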
LASV entry inh – Lassa virus entry inhibition | Lassa virus pseudotype entry inhibition, cell reporter; control for the full effect not named in the record | AID 540256 | Potency, µM (doses to about 37.9 µM), for the others: at the highest dose activity change, negative = inhibition, usual class: inhibitors | 1.2% of 300,000 active; active means well fitted inhibition curve with a large enough effect; inconclusive means small, poorly fitted or top-dose-only effect, or effect the other way; inactive means flat fitted curve, though single readings scatter; tested in HEK293 cells; note: % is set by controls: 0 for no effect and ±100 for the full control effect; nearly all actives have a fitted effect of over 50% in size; luciferase read-out
NS1 function inh – influenza NS1 inhibition; S. cerevisiae slowed by influenza A NS1, growth recovery by OD600; Potency, µM (doses to about 46.1 µM), inactives show at the top dose activity, positive = more growth; 0.4% of 270,000 active; AID 2326; active means well fitted rising curve with a large enough effect; inconclusive means small, poorly fitted or top-dose-only effect; inactive means no such curve, though single readings can be large or run the other way; note: nearly all actives have a fitted effect of over 50% in size
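Recovery from NS1-induced slow growth read by OD600 in budding yeast switched to galactose assay medium (pH 6.0, -URA) at 1:100 dilution. Compound 23 nl per well; the matching strain lacking NS1 serves as control.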
* hit, by the source's call; ? = inconclusive; . = not tested or not shown; & = joins results of further samples; [ ] = another dose, or the depositor's remark. Unless noted, calls come from the whole dose curve; as a rule, active = well fitted curve in the direction sought with a large enough effect; inconclusive = small, poorly fitted or top-dose-only effect, or another doubt; inactive = no such curve, though single readings can be large; an effect the other way counts as inactive or inconclusive. Potency is the fitted concentration of half-maximal effect.

Every second line gives: RE007 growth inh	Cruzain inh Det	Marburg entry inh	2A StopGo	SARS PLpro yeast	Cruzain noTriton	LASV entry inh	NS1 function inh
Cc1nn(CCc2n[nH]c(=S)n2-c2ccc(F)c(Cl)c2)c(C)c1[N+](=O)[O-]
 : -9.1%	5.2%	-2.1%	13.3%	-1.6%	6.1%	9.0%	.
O=C(CSc1nnc(-c2ccc(Cl)cc2)n1-c1ccc(Cl)cc1)N/N=C/c1ccccc1C(=O)O
 : -4.4%	.	6.4%[46.1 µM]	-1.2%	-1.5%	.	1.1%	4.4%
S=c1[nH]nc(-c2cccnc2)n1/N=C/c1ccccc1
 : 0.9%	.	0.9%	1.1%	0.1%	.	-3.9%	1.4%
CC(Sc1ncnc2sccc12)C(=O)Nc1ccc(S(=O)(=O)N2CCOCC2)cc1 (centres undefined)
 : 2.0%	.	15.0%	?	.	.	0.3%	.
CC1(C)CC(=O)c2sc(NC(=O)C3CC3)nc2C1
 : -5.6%	-4.4%	.	7.3%	-0.4%	1.6%	.	-16.0%
Cn1c(N)c(C(=O)COC(=O)c2ccccn2)c(=O)n(C)c1=O
 : 2.5%	.	-8.9%[14.2 µM]	5.5%	2.0%	.	6.5%	0.3%
CC(C)C(=O)c1cn(CC(=O)O)c2ccccc12
 : 30.5%	.	1.8%[46.1 µM]	-13.9%	1.1%	.	7.4%	-2.0%
CC(C)Cc1ccc(C(=O)Nc2ccc(Cc3ccncc3)cc2)o1
 : 2.6%	.	?	-10.0%	-0.1%	.	?	-24.0%
CCOC(=O)CNC(=S)N(Cc1ccccc1)Cc1ccccc1F
 : -4.2%	.	5.8%[46.1 µM]	17.9%	0.6%	.	-5.2%	.
O=C(Cc1ccsc1)OCC(=O)c1ccccc1
 : 20.3%	.	0.4%	65.5%[activator]	-12.7%	.	2.0%	.
COc1ccccc1C(=O)Oc1c(Sc2ccccc2)c(C)nn1C(C)(C)C
 : .	-8.1%	-15.3%[46.1 µM]	?	.	9.3%	-3.1%[46.1 µM]	.
N/C(=N\OC(=O)C1CCCCC1)c1cccc([N+](=O)[O-])c1
 : -9.1%	-0.3%	12.1%	77.4%[activator]	-2.4%	-16.2%	?	-15.0%
CCOc1ccccc1C1CC(=O)NC2=C1C(=O)CCC2 (centres undefined)
 : -0.4%	-1.9%	?	-21.9%	-6.2%	-7.9%	?	?
COC(=O)CSc1nnc(CNC(=O)Cc2ccccc2)n1-c1ccccc1OC
 : -6.2%	4.5%	17.5%	0.8%	-2.2%	-1.4%	-1.9%	-1.8%
CC(CNC(=O)CN1C(=O)COc2ccc(S(=O)(=O)N3CCCCCC3)cc21)c1ccccc1 (centres undefined)
 : .	-3.7%	.	1.2%	.	24.2%	-5.4%[46.1 µM]	.
FC(F)(F)c1ccccc1CNCc1ccc2c(c1)OCO2
 : -2.1%	.	.	-14.6%	-1.5%	.	.	2.6%
CC1(C)Cc2c(c(=S)nc(-c3ccccc3)n2CCO)CO1
 : 20.2%	-4.2%	14.2%	1.1%	14.4%	-16.9%	2.8%	2.9%
Cc1ccc(NC(=O)C2CCCN(S(=O)(=O)c3c(C)noc3/C=C/N(C)C)C2)c(C)c1 (centres undefined)
 : -9.5%	.	.	-6.3%	-3.7%	.	.	28.4%
O=S(=O)(NCc1ccco1)c1ccc(S(=O)(=O)N2CCCC2)cc1
 : 2.7%	.	1.3%[46.1 µM]	30.6%[activator]	2.2%	.	-12.0%	8.9%
COc1ccc2cc(-c3ccn[nH]3)ccc2c1
 : -22.0%	.	?	13.8%	-5.6%	.	-1.2%[46.1 µM]	-52.1%

Further results:
Every second line gives: RE007 growth inh	Cruzain inh Det	Marburg entry inh	2A StopGo	SARS PLpro yeast	Cruzain noTriton	LASV entry inh	NS1 function inh
CCOC(=O)c1c(C)[nH]c(C=C2C(=O)CCCC2=O)c1O
 : -11.6%	-8.3%	1.8%	14.2%	4.4%	-1.7%	0.1%	0.6%
CC(C)[C@@H](C(=O)N1CCCC1)N1C(=O)N2CCc3c([nH]c4ccccc34)[C@@]2(C)C1=O
 : 7.3%	.	.	?	-5.9%	.	.	-8.5%
COc1ccccc1C(=O)NCCC(=O)NCC(c1ccccc1)N(C)C (centres undefined)
 : -12.9%	.	10.5%[46.1 µM]	-10.1%	-0.6%	.	14.1%[46.1 µM]	-22.1%
CCOc1cc2[nH]c(=S)n(CCCN3CCOCC3)c(=O)c2cc1OCC
 : -9.0%	-0.7%	-1.3%	-6.6%	3.0%	-2.5%	-4.6%	2.4%
CN1N=C(c2ccc(Cl)cc2)CC(c2ccc(Cl)cc2)C1=O (centres undefined)
 : -8.0%	.	?	-22.9%	-32.2%	.	?	.
COc1cc(C(=O)N2C(=O)c3cccc(N)c3C2=O)cc(OC)c1OC
 : 1.5%	.	-7.5%[46.1 µM]	-13.1%	3.4%	.	16.8%	.
CC(C)=CCCC(C)CN1CCC(n2nccc2NC(=O)c2ccccc2)CC1 (centres undefined)
 : -16.5%	.	.	-12.2%	27.9%	.	.	0.1%
Cc1nonc1NC(=O)CSc1nc2ccccc2o1
 : 6.3%	.	-0.8%[46.1 µM]	-0.2%	-0.2%	.	-1.4%[46.1 µM]	-21.2%
CCC(C)N(CCNC(=O)CC1Oc2ccccc2NC1=O)C1CCCCC1 (centres undefined)
 : -1.0%	-3.7%	.	-22.3%	-5.6%	-1.0%	.	0.1%
O=C(NCc1ccco1)C1CCCN(c2ncnc3c2nc2n3CCCCC2)C1 (centres undefined)
 : -7.2%	.	8.6%[46.1 µM]	1.3%	6.6%	.	-0.7%[46.1 µM]	-9.0%
CCc1ccccc1NC(=O)CC(=O)Nc1ccccc1CC
 : -19.6%	.	?	-3.2%	-3.2%	.	7.9%	-7.9%
Cc1ccc(F)cc1NC(=O)c1cccc2nccnc12
 : -2.9%	5.8%	0.8%	-0.6%	-2.1%	-0.3%	20.4%	-5.0%
COCCNC(=S)N/N=C1\CC(C)CC(C)(C)C1 (centres undefined)
 : 23.4%	.	-16.6%	-15.9%	-0.2%	.	-7.5%	.
O=C(NN(c1ccccc1)c1ccccc1)c1ccccc1F
 : 9.3%	.	-5.4%[46.1 µM]	-3.3%	1.3%	.	?	8.1%
COc1ccc(-c2csc3ncn(-c4ccccc4OC)c(=O)c23)cc1OC
 : 3.2%	.	-20.7%[46.1 µM]	2.5%	-0.3%	.	-8.5%	.
Cn1nc(C(=O)NCc2ccco2)c2ccccc2c1=O
 : 3.1%	-2.1%	-9.9%	9.7%	6.9%	1.0%	?	-1.6%
Clc1ccc(-c2noc(/C=C/c3ccccc3)n2)cc1
 : -8.1%	.	.	50.3%[activator]	0.2%	.	.	-3.3%
O=C(NCCc1ccc(Cl)cc1)c1ccc2c(c1)N(Cc1ccccc1)C(=O)CS2
 : .	0.3%	.	?	.	31.6µM*	-19.7%[46.1 µM]	.
CCn1cc(C(=O)NCCN(CC(C)C)CC(C)C)c(=O)c2cc(S(=O)(=O)N3CCOCC3)ccc21
 : 3.7%	.	?	-15.2%	0.8%	.	-21.6%[46.1 µM]	-21.8%
Cc1ccc(CC(=O)Nc2nccs2)cc1C
 : 30.7%	.	7.9%	25.5%	-9.2%	.	0.6%	2.3%

Complete entries from above. Order of values: RE007 growth inh	Cruzain inh Det	Marburg entry inh	2A StopGo	SARS PLpro yeast	Cruzain noTriton	LASV entry inh	NS1 function inh
O=C(NCCc1ccc(Cl)cc1)c1ccc2c(c1)N(Cc1ccccc1)C(=O)CS2 is listed as .	0.3%	.	?	.	31.6µM*	-19.7%[46.1 µM]	.
COc1ccc(-c2csc3ncn(-c4ccccc4OC)c(=O)c23)cc1OC is listed as 3.2%	.	-20.7%[46.1 µM]	2.5%	-0.3%	.	-8.5%	.

Going on with the list.
Every second line gives: RE007 growth inh	Cruzain inh Det	Marburg entry inh	2A StopGo	SARS PLpro yeast	Cruzain noTriton	LASV entry inh	NS1 function inh
COc1cc(CO)cc(Br)c1OCc1cccnc1
 : ?	-3.5%	7.7%	21.8%	0.6%	-2.7%	11.3%	1.0%
C/C(=C\C(=O)c1ccc(Cl)cc1)Nc1ccc(Br)cc1
 : 15.1%	.	24.3%[46.1 µM]	52.6%[activator]	.	.	15.5%	.
Cc1cc(C(=O)Nc2ccc3[nH]ccc3c2)no1
 : 12.9%	.	0.7%	-1.4%	-2.3%	.	?	-0.6%
O=C(CSc1ncn[nH]1)NN(c1ccccc1)c1ccccc1
 : -1.1%	-1.2%	-10.6%[46.1 µM]	-11.3%	4.7%	-0.9%	-17.4%[46.1 µM]	8.1%
Cc1cc(Br)ccc1NC(=O)CCS(=O)(=O)c1cccc2nsnc12
 : .	4.8%	12.2%[46.1 µM]	0.6%	.	-9.6%	18.8%[46.1 µM]	.
CCOc1ccc(C(C)=O)cc1COC(=O)CNC(=O)C12CC3CC(CC(C3)C1)C2
 : -12.7%	.	-17.7%[46.1 µM]	-7.3%	-14.2%	.	-7.1%[46.1 µM]	.
Cc1ccc(O)c(C2=NOC(O)(C(F)(F)F)C2)c1 (centres undefined)
 : 6.4%	-0.2%	-1.6%	9.3%	-14.6%	-5.8%	20.2%	-3.7%
Cc1cc(Cl)ccc1N=Cc1c(O)n(C)c(=O)n(C)c1=O
 : .	4.1%	-1.3%	.	-2.9%	-12.4%	.	-5.9%
O=C(CCNC(=O)c1ccc(Br)cc1)Nc1cccc(S(=O)(=O)N2CCCCC2)c1
 : 37.6%	.	?	-10.9%	-1.3%	.	-10.2%	.
Clc1ccc(-c2csc3ncnc(Cl)c23)cc1
 : -9.3%	0.2%	-1.6%	?	-5.4%	3.7%	2.8%	-12.9%
Cc1ccccc1NC(=O)CSc1nnc(-c2ccccn2)o1
 : -9.1%	.	?	-0.6%	7.3%	.	12.8%[46.1 µM]	4.7%
FC(F)(F)c1nnc2ccc(N3CCCC3)nn12
 : -2.1%	4.7%	-10.9%	-10.9%	4.2%	-1.5%	-11.0%	-5.0%
Cc1ccccc1NC(=O)C1CC(=O)n2ncnc2N1 (centres undefined)
 : -8.1%	.	.	-12.1%	-7.6%	.	.	?
CC(=O)N1CCN(c2nc3cc4c(cc3nc2NS(=O)(=O)c2ccccc2)OCCO4)CC1
 : 4.2%	-8.4%	-9.1%&-9.1%	-4.6%	-0.4%	?	-11.9%	3.4%

High-throughput results (PubChem)
